HPGD block: inhibitors of human 15-hydroxyprostaglandin dehydrogenase (HPGD); 150,000 compounds, 4.3% hits; P15428; purified HPGD, NADH fluorescence kinetic, PGE2 substrate; Potency, µM, without a hit: at the top dose activity change, negative = inhibition, actives largely listed as inhibitors; active = well fitted inhibition curve with a large enough effect (not every such curve was filed as active); inconclusive = small, poorly fitted or top-dose-only effect, or another doubt; inactive = no such curve, though single readings can be large or run the other way;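 note: top concentration of the series not given in the record; plate controls included wells without enzyme; inactives centre near -10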
Target sequence (P15428 whole entry, looked up): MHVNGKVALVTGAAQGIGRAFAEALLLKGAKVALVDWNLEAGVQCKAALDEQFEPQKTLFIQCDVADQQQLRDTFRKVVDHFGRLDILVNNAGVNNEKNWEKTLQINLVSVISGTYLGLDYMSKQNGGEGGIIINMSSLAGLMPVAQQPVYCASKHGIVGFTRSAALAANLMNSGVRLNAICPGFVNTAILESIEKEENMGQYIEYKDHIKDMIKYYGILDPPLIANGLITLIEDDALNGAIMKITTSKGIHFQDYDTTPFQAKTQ
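NADH formation kinetics: reaction with 30 uM PGE2 and 1 mM NAD+ (final), 20 nM enzyme, Tris-HCl pH 8 with Tween 20, after 15 min compound preincubation at room temperature. Fluorescence change, last versus first of five reads.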
* = called active by the depositor; ? = inconclusive. % is set by controls: 0 for no effect and ±100 for the full control effect; potency is the fitted concentration of half-maximal effect.

HPGD block | canonical_smiles
0% | COc1cc(C(=O)OCCN2CCCCC2)ccc1O
-3% | CCC(C)(C)n1nnnc1C(c1cccnc1)N1CCN(c2cccc(C(F)(F)F)c2)CC1 (stereo not given)
-14% | O=C(CNC(=S)NC(=O)c1ccco1)c1ccccc1
? | COc1ccc2c(-c3cccnc3)cc(=O)[nH]c2c1
-8% | COc1ccc(C2(C)NC(=O)N(CC(=O)Nc3ccc4c(c3)OCO4)C2=O)cc1OC (stereo not given)
-13% | COc1ccc(OC)c(C2C(C#N)=C(N)Oc3cc(C)[nH]c(=O)c32)c1 (stereo not given)
-11% | O=C(NCc1ccc2c(c1)OCO2)C1CC(c2ccc(Cl)cc2)=NO1 (stereo not given)
? | Cc1ccc2[nH]c3c(c2c1)CCC3=O
? | COc1cc2c(cc1NC(=O)Cc1ccc(C)cc1)oc1ccccc12
-14% | CCNC(=O)CCn1nc(-c2ccc(Cl)cc2)c2ccccc2c1=O
-5% | O=C(O)[C@H]1CN[C@H](C(=O)O)C1
-13% | CC(=O)CCn1c(=O)n(CCC(C)=O)c(=O)n(CCC(C)=O)c1=O

Looked up one by one from the entries so far, six records:
HPGD block | canonical_smiles
-8% | COc1ccc(C2(C)NC(=O)N(CC(=O)Nc3ccc4c(c3)OCO4)C2=O)cc1OC (stereo not given)
-3% | CCC(C)(C)n1nnnc1C(c1cccnc1)N1CCN(c2cccc(C(F)(F)F)c2)CC1 (stereo not given)
-14% | O=C(CNC(=S)NC(=O)c1ccco1)c1ccccc1
-14% | CCNC(=O)CCn1nc(-c2ccc(Cl)cc2)c2ccccc2c1=O
? | COc1ccc2c(-c3cccnc3)cc(=O)[nH]c2c1
-11% | O=C(NCc1ccc2c(c1)OCO2)C1CC(c2ccc(Cl)cc2)=NO1 (stereo not given)

(continued)
HPGD block | canonical_smiles
? | COC(=O)c1c(N)n(-c2ccc(NC(C)=O)cc2)c2nc3ccccc3nc12
-16% | CC12COC3(C(=O)Nc4ccc([N+](=O)[O-])cc4)CC1CCC32C (stereo not given)
-10% | Cc1cccc(NC(=O)NNC(=O)c2cc(-c3ccccc3Cl)nc3ccccc23)c1
-14% | Cc1nnc(SCCn2c(Br)nc3c2c(=O)[nH]c(=O)n3C)s1
3.5µM* | O=C(CSc1ccc(-c2cccs2)nn1)N1CCCCC1
? | C/C=C/c1ccc(OCCCCOc2ccc(OC)cc2)c(OC)c1
-14% | O=C(CSc1ncnc2c1sc1ccccc12)Nc1ccc(Br)cc1
-14% | CCOC(=O)C1CCCN(C(=S)Nc2cccc(Cl)c2)C1 (stereo not given)
-5% | CCN(c1ccccc1)S(=O)(=O)c1cc(C(=O)O)ccc1C
-7% | CCC(C)[C@H](NC(=O)NCc1ccco1)C(=O)O (stereo not given in full)
-5% | CCOc1ccccc1NC(=O)/C(C#N)=C/c1c(C)nn(-c2ccc(F)cc2)c1Cl
-4% | Cc1ccc(NC(=O)c2nccnc2C(=O)O)cc1C
-12% | Cc1cc(C)n2c(SCC#N)nnc2n1
? | CCOC(=O)c1[nH]c2ccccc2c1NC(=O)C(C)(C)C
-7% | CC1(C)CC(=O)/C(=C(\O)c2ccccc2)C(=NCCO)C1
-10% | CCCn1c(CCc2ccccc2)nnc1SCC(=O)N1CCOCC1
-12% | CCC[C@H]1C[C@H](C(=O)N[C@@H]([C@H]2O[C@@H](SC)[C@@H](O)[C@@H](O)[C@@H]2O)[C@H](C)Cl)N(C)C1
-22% | Cc1ccc(S(=O)(=O)c2c(C)cc(C)nc2Cl)c(C)c1
0% | CCC(=O)c1ccc(OCC(O)CN2CCOCC2)cc1 (stereo not given)
-3% | NC(=NCCc1ccccc1)NS(=O)(=O)c1ccccc1
-8% | CCN(CC)S(=O)(=O)c1ccc(Cl)c(NC(=O)COC(=O)c2c(C)noc2C)c1
-8% | CC(C)CC(=O)NC(=S)Nc1ccc(S(=O)(=O)Nc2nccs2)cc1
-18% | CC/C=C/C/C=C/C/C=C/CCCCCCCC(=O)OCC
-8% | CN(CCO)C(=O)CCC(=O)Nc1ccc(S(N)(=O)=O)cc1
-7% | O=C(c1ccccc1F)N1CCN(c2ccccc2)CC1
-17% | CC1(C)CC(=O)C2=C(C1)Nc1cc(C(=O)c3ccccc3)ccc1NC2c1ccccn1 (stereo not given)
-6% | CCOc1ccc(S(=O)(=O)N2CCN(c3ccccc3OC)CC2)c2cccnc12
-1% | CC(C)c1ccc(NC(=O)C2CC(=O)N=C(N)S2)cc1 (stereo not given)
-2% | CCO/C=C/C(=O)N(C)CCC#N
-2% | CCCC[C@H](CC)CN=C(N)NC(N)=NCCCCCCN=C(N)NC(N)=NC[C@@H](CC)CCCC
-7% | Cc1ccc(-c2csc3nc(CSc4nnc(-c5ccc(Cl)cc5)n4C)[nH]c(=O)c23)cc1
-11% | Cc1nn(C)c(C(=O)Nc2ccc(Cl)c([N+](=O)[O-])c2)c1Cl
-14% | N#Cc1nc(COc2cccc(Cl)c2)oc1NCc1ccco1
2% | CCN1CCN(S(=O)(=O)c2ccc3[nH]c(=O)oc3c2)CC1
-1% | CN(C(=O)CSc1nnc(Cc2ccccc2F)n1N)C1CCS(=O)(=O)C1 (stereo not given)
-4% | Cc1oc(-c2ccccc2F)nc1CN1CCC(C(=O)NC2CCCCCCC2)CC1
-17% | O=C(COC(=O)c1cccnc1Cl)c1ccc(Cl)cc1Cl
? | CCOc1ccc(C2C=C(c3ccc(F)cc3)Nc3ncnn32)cc1 (stereo not given)
-5% | CS(=O)(=O)N(CC(=O)NCC1CCCO1)c1cc(Cl)ccc1Cl (stereo not given)
-10% | Cc1ccc(N=C2NC(=O)/C(=C/c3cccs3)S2)cc1C
-1% | CCCCC(C(=O)NC(=O)NCc1ccccc1)N1C(=O)c2ccccc2C1=O (stereo not given)
-19% | O=C(CC(c1ccc(F)cc1)c1ccco1)N1CCOCC1 (stereo not given)
-19% | COc1ccc(-n2cnnc2SCC(=O)NCc2cccs2)cc1
-16% | Cc1ccc(C(OC(=O)c2ccco2)C(=O)NCc2cccs2)cc1 (stereo not given)
-4% | Cc1ccc(S(=O)(=O)N2CCCC(NC(=O)N3CCN(c4ccccc4)CC3)C2)cc1 (stereo not given)
-17% | C=CCSc1nnc2c(n1)OC=Nc1ccc(Br)cc1-2
-12% | CCOC(=O)c1cccc(NC(=O)CSc2nc3ccccc3c(=O)n2CCOC)c1
-9% | COc1ccc(C2C(C(=O)N3CCCCC3)CC(=O)N2c2ccc(OC)cc2)cc1 (stereo not given)
-7% | Cc1ccc(OCc2ccc(C(=O)Nc3nc4ccccc4n3Cc3ccccc3)o2)c([N+](=O)[O-])c1
-16% | CCSc1nnc(NC(=O)CSc2nnc(CNC(=O)c3ccc(OC)cc3)o2)s1
-2% | CC(C)(C)n1nnnc1CN1CCSCC1
-3% | Cc1cccc(NC(=O)CC2C(=O)NCCN2C(=S)Nc2ccccc2)c1 (stereo not given)
-3% | Cc1ccc(S(=O)(=O)NC(C)C(c2cccs2)N2CCN(c3ccccc3)CC2)cc1 (stereo not given)
-18% | O=C(CCCCCN1C(=O)c2ccccc2C1=O)NCc1ccccn1
-8% | CC(=O)N1CCN(c2ccc(NC(=O)c3ccc(C(C)(C)C)cc3)cc2)CC1
-2% | CC1(OC(=O)C2CCCC2)C(=O)C=C2C=C(c3ccsc3)N(CCc3ccccn3)C=C2C1=O (stereo not given)
-3% | Cc1nnsc1NC(=O)OCc1ccc(C(F)(F)F)cc1
1% | c1ccc2c(c1)nnn2CN1CCOCC1
-1% | Cc1c(NC(=O)c2cnn3c2NC(c2ccccc2)CC3C(F)(F)F)c(=O)n(-c2ccccc2)n1C (stereo not given)
0% | O=C(NC(=S)NCC1CCCO1)c1cccs1 (stereo not given)

HPGD block: hit marks shown above
HPGD block | canonical_smiles
3.5µM* | O=C(CSc1ccc(-c2cccs2)nn1)N1CCCCC1

Following part
HPGD block | canonical_smiles
-5% | O=C(NC1CC1)C1CC(=O)N(C2CCCCC2)C1 (stereo not given)
10µM* | O=C(/C=C/c1ccccc1)NCCSCc1ccccc1Cl
7% | O=C(Cn1nnc(-c2ccc(OCc3ccccc3F)cc2)n1)N1CCOCC1
-7% | Cc1ccc(S(=O)(=O)NNC(=O)CCC(=O)Nc2ccccc2)cc1
-15% | COc1ccc(CC(=O)NNc2ncnc3c2cnn3-c2ccc(C)cc2)cc1OC
-13% | Cc1ccc(C=NCc2ccncc2)c(O)c1
-18% | CCc1ccc(N(C(=O)c2csnn2)C(C(=O)NC(C)(C)C)c2ccncc2)cc1 (stereo not given)
32µM* | COCc1nnc(NC(=O)c2sc3ccccc3c2Cl)s1
-6% | NC(=O)C1CCN(C2OC(=O)c3ccccc32)CC1 (stereo not given)
-11% | COc1ccc2c(C)nc(Nc3nc(C)c(C)c(=O)[nH]3)nc2c1
-5% | COc1ccccc1N1CCN(C(=O)C2C3C=CC4(CN(Cc5ccccc5Cl)C(=O)C24)O3)CC1 (stereo not given)
? | CC(=O)c1ccc(NS(=O)(=O)c2cccc(C)c2)cc1
-6% | CCC(c1nnnn1C1CCCC1)N1CCN(Cc2ccccc2)CC1 (stereo not given)
-7% | CCOc1ccccc1NC(=O)NC1(C(=O)N2CCN3CCCC3C2)CCCCC1 (stereo not given)
-5% | CN(c1ccccc1C(=O)Nc1cccc(C(F)(F)F)c1)S(C)(=O)=O
-10% | Cc1csc(/C(=N\O)c2csc(C)n2)n1
-5% | COC(=O)c1c(N=CN(C)C)c(C#N)c2n1CCCC2
? | Cc1cc(/C=N/n2cnnc2)c(C)n1-c1ccc(OCc2ccc(F)cc2)cc1
-7% | CCOC(=O)Cn1nc(-c2ccc(Cl)cc2)ccc1=O
-7% | COCCCNC(=S)N(Cc1cccnc1)Cc1ccc(OC)c(OC)c1
-10% | C#C[C@@]1(OC(C)=O)CC[C@@H]2[C@@H]3CCC4=C[C@@H](OC(C)=O)CC[C@H]4[C@H]3CC[C@]21C
-2% | Cc1ccc(NC2CCCCC2NS(=O)(=O)c2ccc(Cl)cc2)cc1 (stereo not given)
-10% | COCCCNCCCOc1ccc(Cl)cc1C(C)(C)C
14µM* | Cc1cccc(NC(=S)NCC2CCCO2)c1 (stereo not given)

Nothing new here: 4 of the compounds above.
HPGD block | canonical_smiles
-7% | COCCCNC(=S)N(Cc1cccnc1)Cc1ccc(OC)c(OC)c1
-10% | C#C[C@@]1(OC(C)=O)CC[C@@H]2[C@@H]3CCC4=C[C@@H](OC(C)=O)CC[C@H]4[C@H]3CC[C@]21C
-2% | Cc1ccc(NC2CCCCC2NS(=O)(=O)c2ccc(Cl)cc2)cc1 (stereo not given)
-10% | COCCCNCCCOc1ccc(Cl)cc1C(C)(C)C

(continued)
HPGD block | canonical_smiles
? | COc1ccc2c(c1)C(=O)N(c1ccccc1)C(=O)C2
-14% | COc1cc(OC)c(NC2c3ccccc3C(=O)N2c2cc(C)ccn2)cc1Cl (stereo not given)
-9% | Cn1c(=O)n(Cc2ccccc2)c2ccccc21
-9% | CC1(C)CC(O)C(C(O)c2cccc([N+](=O)[O-])c2)C(C)(C)N1 (stereo not given)
? | COc1cc2c(C#N)c(N3CCN(C)CC3)nc(N)c2c(N)n1
1% | CSc1nnc(CNC(=O)C23CC4CC(CC(C4)C2)C3)n1Cc1ccccc1
-7% | CCCCOc1ccc(C(NC(=O)OCC)NC(=O)OCC)cc1
0% | O=C1CN(CC(=O)NC(=O)NCc2ccccc2)CCN1
-15% | C=CCN1C=C/C(=C\C=C(C#N)C#N)c2ccccc21
? | COc1ccc(-c2c[n+]3c4n2CCCCC4=C(c2ccc(Br)cc2)C3)cc1
-8% | CCN(CC)CCNC(=O)c1ccc(Cl)c(S(=O)(=O)N2CCCCCC2)c1
-7% | Cc1nn(CC(=O)NCCCN2CCOCC2)c(C)c1[N+](=O)[O-]
-17% | CCOC(=O)C1=C(N)n2c(s/c(=C\c3ccco3)c2=O)=C(C(=O)OCC)C1c1ccco1 (stereo not given)
-8% | O=C(NN1C(=O)C2C3C=CC(C3)C2C1=O)c1cccc(Cl)c1 (stereo not given)
-13% | CN(C)S(=O)(=O)CC12CCC(CC1=O)C2(C)C (stereo not given)
-3% | Cc1cc(C(=O)Nc2cccnc2Cl)on1
-4% | C/C(=N/O)c1cc(C(C)(C)C)c(O)c(C(C)(C)C)c1
-27% | CCC1CCc2c(sc3ncnc(N4CCOCC4)c23)C1 (stereo not given)
-21% | C=C(C)C1CC=C(C)/C(=N\NC(=S)Nc2ccc(C)cc2)C1 (stereo not given)
? | CCOc1ccc(OCC)c(NC(=O)c2[nH]c(C)c(C(C)=O)c2C)c1
-11% | Cn1c(=O)c2c(n3cnnc13)-c1ccccc1CC21CCCC1
-10% | C[C@@H]1C[C@H](O)c2cc(Cl)ccc2N1
-23% | Cc1cc(=O)n(CC(C)C)c(O)c1C#N
-8% | O=C(Cn1cc2c(n1)CCCC2)Nc1cc(-c2cccc(Cl)c2)no1
? | COCCCNC(=O)c1c(N)n(-c2cccc(S(N)(=O)=O)c2)c2nc3ccccc3nc12
-3% | CC1=NN(C(=O)c2cc(C)nn2C)C(O)(C(F)(F)F)C1 (stereo not given)
-4% | Cc1nnc(-c2cnn(C)c2N)n1Cc1ccccc1
-7% | COc1ccc(Br)cc1C1N2CC3(C)CN1CC(C)(C2)C3=O (stereo not given)
-6% | O=[N+]([O-])c1ccc(Nc2nc(N/N=C/c3cccc(F)c3)nc(N3CCCC3)n2)cc1

Sorted by the number under HPGD block (low to high): 4 of the compounds above
HPGD block | canonical_smiles
3.5µM* | O=C(CSc1ccc(-c2cccs2)nn1)N1CCCCC1
10µM* | O=C(/C=C/c1ccccc1)NCCSCc1ccccc1Cl
14µM* | Cc1cccc(NC(=S)NCC2CCCO2)c1 (stereo not given)
32µM* | COCc1nnc(NC(=O)c2sc3ccccc3c2Cl)s1

Screening data: PubChem BioAssay, National Center for Advancing Translational Sciences (NCATS)

Not all compounds are listed; the hit share may differ from the screen's.
